Screening results: PubChem BioAssay, ICCB-Longwood Screening Facility, Harvard Medical School
Choline anaer gr – choline-fed anaerobic bacterial growth inhibition; calls only; actives 0.2% (n = 55,000); AID 1963822; Gram-negative bacterium anaerobic choline minimal medium, absorbance growth; hits give low values; many inactives read as strong as hits in the columns shown;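 active = growth z-score on choline under -2 at 7 or 20 h with little or no fall on glycerol, limits in tiers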;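 note: stock transfer was 300 nL into about 50 µL; the organism is E. coli; final concentration not given here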
Choline anaer gr early – second read-out of Choline anaer gr, no call of its own (marks repeat the call); z-score; measured here: choline growth z-score, timepoint 1;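 score of optical density at 7 h as mean of two plates; lower means less growth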
* marks the source's active call; other numbers are inactive results; i = inactive; & = joins results of further samples.

smiles,Choline anaer gr,Choline anaer gr early
CCOc1ccc(-n2c(=O)c3sc4ncccc4c3n(CC(=O)NCc3ccccc3)c2=O)cc1,i,3
NC(=O)CSc1nccn2nc(-c3ccc(Cl)cc3)cc12,i,-0.24
Cc1ccc(NC(=O)CSCc2nc3cccnc3n2C2CCCCC2)c(C)c1,i,-0.85
CCCCN(C)c1ccc2nnc(CCc3nc(-c4ccccc4Cl)no3)n2n1,i,-1.7
COc1cccc(N2CCN(C(=O)CCc3nnc4ccc(-c5ccc(C)c(C)c5)nn34)CC2)c1,i,0.47
CC(C)Cn1c(=O)c2sccc2n2c(=S)[nH]nc12,i,0.5
O=C(c1ccc(F)cc1)N1CCN(CCc2ccncc2)CC1,i,-1.6
CCCN1CCN(C(=O)C2CCN(S(=O)(=O)c3cc(-c4noc(CC)n4)sc3C)CC2)CC1,i,0.33
CC1CCN(Cc2cccn2-c2nnc(N3CCN(c4ccccc4)CC3)s2)CC1,i,1.2
COc1ccc(-n2nc(C(=O)N3CCN(c4ccccc4F)CC3)c(=O)n(C)c2=O)cc1,i,-0.12
O=C(NC1CCCC1)c1cnc2sccn2c1=O,i,-0.51
Cc1ccc(C(C)NC(=O)c2cccc(-c3cc(N4CCCC4)ncn3)c2)cc1 (stereo unspecified),i,0.55
CO/N=C(/C(=O)NC1C(=O)N2C(C(=O)O)=C(CSc3nnnn3C)CSC12)c1csc(N)n1 (stereo unspecified),i,-2.9
O=C(Cn1c(SCc2ccc(F)cc2)nc2cccnc21)Nc1cccc(F)c1,i,1.4
Cc1ccc(CNC(=O)C2(C)CCCN(C(=O)COc3cccc(C)c3)C2)cc1 (stereo unspecified),i,-0.73

The closing 2 compounds of the part above open the next one:
smiles,Choline anaer gr,Choline anaer gr early
O=C(Cn1c(SCc2ccc(F)cc2)nc2cccnc21)Nc1cccc(F)c1,i,1.4
Cc1ccc(CNC(=O)C2(C)CCCN(C(=O)COc3cccc(C)c3)C2)cc1 (stereo unspecified),i,-0.73
CCCN1CCN(S(=O)(=O)c2ccc3c(c2)N(Cc2noc(C4CCC4)n2)C(=O)CO3)CC1,i,0.03
O=C(NC1CC1)c1c2c(nc3ccc(F)cc13)CCC2,i,0.91
CCOC(=O)c1cc(C)nc2c1c(=O)n(Cc1nc(-c3ccccc3Cl)oc1C)c(=O)n2C,i,-0.09
Fc1ccc(OCc2nnc3sc(-c4ccc(Cl)cc4)nn23)cc1,i,-1.1
Cc1cc(C2CCCN2Cc2cc(F)ccc2F)on1 (stereo unspecified),i,-1.1
O=C(Nc1cccc(-c2noc(C3CCCC3)n2)c1)C1CC(=O)N(c2cccc(Cl)c2)C1 (stereo unspecified),i,1.5
COC(=O)CNC(=O)N1CCCC1c1cc(C)on1 (stereo unspecified),i,0.83
CCCCN1CCN(Cc2nc(-c3ccc(N4CCSCC4)nc3)no2)CC1,i,-0.98
CCCn1cnc2nc(CSc3ccccc3NC(=O)Nc3cccc(Cl)c3)cc(=O)n21,i,0.28
C[C@]12CCC(=O)C=C1C=C[C@@H]1[C@@H]2CC[C@@]2(C)[C@H]1CC[C@@]21CCC(=O)O1,i,0.48&-0.5
O=C(CCC1CCCC1)N1CCN(c2ncnc3c2nnn3-c2ccccc2)CC1,i,0.18
Cc1cccnc1-n1c(C)c(C)c2c1ncn1nc(-c3ccc(C(C)(C)C)cc3)nc21,i,-0.4
O=C(Nc1ccccc1Cl)c1cc2ccccn2n1,i,2.6
O=C(Nc1ccccc1Br)N1CCN(c2cc(-c3cccc(F)c3)ncn2)CC1,i,-1.3
O=C(c1csc(Nc2ccccc2)n1)N1CCCCC1,i,-0.73
CCOC(=O)c1cc(C(=O)Nc2ccc(F)cc2)c(=O)[nH]c1C,i,0
CC(C)Oc1ccc(CNC(=O)CCCN2CCSc3ccccc32)cc1,i,1.9
COc1ccccc1N1CCN(C(=O)Cn2cnc3c2c(=O)n(C)c(=O)n3C)CC1,i,0.83
O=S(=O)(c1cccn2c(SCc3ccccc3Cl)nnc12)N1CCCCC1,i,0.05
CCOC(=O)c1ccc2c(c1)N(CC(=O)Nc1ccccc1OC)C(=O)c1ccccc1S2(=O)=O,i,1.1
CC(C(=O)Nc1ccc(F)cc1)n1nnc2sc3c(c2c1=O)CCCC3 (stereo unspecified),i,0.43
Cc1onc(-c2ccc(Br)cc2)c1C(=O)NCCC(C)C,i,-0.76
COc1ccc(-c2ccc(N)[n+](CCCC(=O)O)n2)cc1,i,0.28&0.46
CNS(=O)(=O)c1ccc(OC)c(-c2noc(C)n2)c1,i,-0.48
Cc1cn2c(=O)cc(COc3ccccc3)nc2s1,i,0.46
O=C(CSC1=Nc2ccccc2N=C(c2ccccc2)C1)Nc1ccc2c(c1)OCO2,i,0.34
Cc1ccc(NC(=O)CN2CCCn3nc(C)cc32)c(C)c1,i,-0.21
CCSc1nc2ccc(NS(=O)(=O)c3ccc(C)cc3C)cc2s1,i,0.48
O=C(NCCC1=CCCCC1)C1CCCN(c2ncc(-c3ccccc3)cn2)C1 (stereo unspecified),i,0.61
O=C(CCc1c[nH]c2ccccc12)N1CCN(c2ccc(-c3noc(C4CC4)n3)cc2)CC1,i,0.53

Next part, overlapping the part above by 3 compounds.
smiles,Choline anaer gr,Choline anaer gr early
CCSc1nc2ccc(NS(=O)(=O)c3ccc(C)cc3C)cc2s1,i,0.48
O=C(NCCC1=CCCCC1)C1CCCN(c2ncc(-c3ccccc3)cn2)C1 (stereo unspecified),i,0.61
O=C(CCc1c[nH]c2ccccc12)N1CCN(c2ccc(-c3noc(C4CC4)n3)cc2)CC1,i,0.53
CN(Cc1ccccc1)C(=O)CN(C)S(=O)(=O)c1cc2c(cc1Cl)NC(=O)CO2,i,-0.81
CC(=O)Nc1ccc(C(=O)NCCn2c(C)nc3ccccc32)cc1,i,-0.55
O=S(=O)(c1cc(-c2noc(C3CC3)n2)cs1)N1CCN(c2ccc(F)cc2)CC1,i,0.66
Cc1nc(SCc2nc(-c3ccccc3)oc2C)[nH]c(=O)c1C,i,-0.09
CCOc1ccc(NC(=O)N2CC(=O)N(CC(=O)NCc3ccc(Cl)cc3)c3ccccc32)cc1,i,1.8
O=C(CSc1nnc(-c2cc3ccccc3o2)n1Cc1ccccc1)Nc1ccccc1O,i,-1.3
CC(C)c1ccc(C(=O)NCc2ccc(-c3nn4cnnc4s3)cc2)cc1,i,2.3
Cn1nc(C(=O)NCCC2=CCCCC2)c2c1-c1ccccc1OC2,i,1.8
O=c1[nH]c(SCc2ccc(Cl)cc2)nc2nc[nH]c12,i,-1.3
COc1cc(N2C=C(C#N)S(=O)(=O)c3cc(F)ccc32)cc(OC)c1OC,i,0.3
Cc1cccc(NC(=O)CC2CCN(C(=O)c3cn(-c4ccccc4)nc3-c3ccccc3)CC2)c1,i,0.23
COc1cccc(NS(=O)(=O)c2cc(-c3cc(C(F)(F)F)on3)sc2C)c1,i,0.35
O=C(C1CCC1)N1CCCc2cc(S(=O)(=O)N3CC=C(c4ccccc4)CC3)ccc21,i,0.74
Cc1nnc(-c2c(C)[nH]c(C)c2S(=O)(=O)NC2CCCCCC2)o1,i,0.69
Cc1cccc(CN2CCN(CC(=O)N3CCN(c4ccccn4)CC3)C(=O)C2=O)c1,i,0.59
CCC(=O)Nc1ccccc1-c1nc2ccccc2[nH]c1=O,i,-1.8
Cc1cc2[nH]c(C(=O)NCCN3CCOCC3)c(CN3CCCCC3)c2s1,i,0.1
COc1ccccc1Nc1nc(N)c(C(=O)c2c[nH]c3ccccc23)s1,i,-1.8
CC(=O)OCC(=O)[C@@]1(O)CC[C@H]2[C@@H]3CCC4=CC(=O)CC[C@]4(C)[C@H]3[C@@H](O)C[C@@]21C,i,0.49&0.14
CCOc1ccc(-c2nc(CNC(=O)Nc3ccc(Cl)cc3)c(C)o2)cc1,i,0.25
CC(C)N1CCc2c(sc(NC(=O)c3ccc(F)cc3)c2-c2nc3ccccc3s2)C1,i,-0.53
Cn1cnc2c(NCc3ccccc3)nc(NCCO)nc21,i,0.41&0.44&0.02
COc1ccc(-c2ccc(CNC(C)C)o2)cc1Cl,i,0.09
Cc1ccc(C)c(CSc2nc3c(=O)[nH]cnc3n2C)c1,i,-1
CCN(CC)c1nc2cc(C(=O)OC)ccc2c(=O)n1Cc1ccc(C)cc1,i,-0.02
O=C(c1cccc(Cl)c1)N1CCN(Cc2cc(=O)n3nc(-c4cccc(F)c4)sc3n2)CC1,i,0.43
Cc1cc(-c2cc(S(=O)(=O)NCC3CCCO3)c(C)s2)on1 (stereo unspecified),i,0.36
Cc1ccccc1CNC(=O)C1CCCN(C(=O)C2Sc3ccccc3NC2=O)C1 (stereo unspecified),i,-0.19
CC(C)CCNC(=O)C1CCCN(C(=O)c2ccc(NS(=O)(=O)c3ccccc3)cc2)C1 (stereo unspecified),i,0.78
CCCN1CCN(C(=O)c2nc(N3CCSCC3)c3cn(C)nc3n2)CC1,i,0.36

New compounds follow
smiles,Choline anaer gr,Choline anaer gr early
Cc1cccc(-c2nc3nc(C)cc(N(CCO)Cc4ccccc4)n3n2)c1,i,1.5
Cn1c(=O)c2sccc2n2c(CCCC(=O)N3CCN(c4ccccn4)CC3)nnc12,i,0.75
CS(=O)(=O)N1CCN(c2ccc(N3CCOCC3)nn2)CC1,i,-1
Clc1cccc(N2CCN(CCCNc3nn4nnnc4c4ccccc34)CC2)c1,i,0.54
Cc1ccc(S(=O)(=O)[C@H]2CS(=O)(=O)C[C@@H]2NCCc2ccc(S(N)(=O)=O)cc2)cc1,i,-0.26
Cn1c(N2CCC(C(=O)N3CCOCC3)CC2)cc(=O)n(C)c1=O,i,-0.29
O=c1cc(CSc2nnc3c4ccccc4nc(-c4ccccc4)n23)nc2ccccn12,i,1.3
O=C1CN(Cc2ccccc2)S(=O)(=O)c2ccccc2N1Cc1ccc(F)cc1,i,-0.14
O=c1n(CCOc2ccc(F)cc2)nc2c(S(=O)(=O)N3CCCCCC3)cccn12,i,0.42
CCC(C)N1CC(=O)N(c2ccc(Br)cc2)[C@@H]2CS(=O)(=O)C[C@@H]21 (stereo partly specified),i,-0.4
CS(=O)(=O)NCC(c1cccnc1)S(=O)(=O)c1ccccc1 (stereo unspecified),i,-1.8
CC1CSc2ccc(S(=O)(=O)N3CCOCC3)cc2N(CC(=O)NCC2CCCO2)C1=O (stereo unspecified),i,-0.95

One compound at a time, as listed above.
CS(=O)(=O)N1CCN(c2ccc(N3CCOCC3)nn2)CC1 across the screens: Choline anaer gr = i; Choline anaer gr early = -1
Cn1c(=O)c2sccc2n2c(CCCC(=O)N3CCN(c4ccccn4)CC3)nnc12 across the screens: Choline anaer gr = i; Choline anaer gr early = 0.75

Following part
smiles,Choline anaer gr,Choline anaer gr early
O=C(NCc1ccccc1)c1cc(=O)nc2sc(N3CCCCC3)nn12,i,-1.2
CC(C)(C)CC(=O)NC1CC(=O)N(c2ccc3c(c2)OCCO3)C1 (stereo unspecified),i,-0.24
Cc1ccc(N2C(=O)CN(S(=O)(=O)c3ccccc3)CC2(C)C(=O)NC2CCCCC2)cc1F (stereo unspecified),i,1.4
CC1CCN(C(=O)Cn2cc(SCC(N)=O)c3ccccc32)CC1,i,0.22
c1ccc(-c2noc(-c3ccc(NCc4ccc5c(c4)OCO5)nn3)n2)cc1,i,0.78
Cc1ccc(-c2nc3cccnc3n2CCN2CCN(C(=O)Nc3c(C)cccc3C)CC2)cc1,i,-0.34
Cc1ccc2ccc3cc(C(=O)N4CCCC4)nc3c2[nH]1,i,0.35
O=C(C1CCCN(c2ncnc3onc(-c4ccc(F)cc4)c23)C1)N1CCN(c2ccccn2)CC1 (stereo unspecified),i,-0.45
COc1ccc(Cl)cc1S(=O)(=O)Nc1cccc(-c2ccc(N3CCC(C)CC3)nn2)c1,i,0.81
COc1ccc(OCC(=O)N2CCc3c(c(C(=O)NCc4ccccc4)nn3C)C2)cc1,i,0.45
c1ccc(CNc2ccc(-c3nc(-c4ccccc4)no3)nn2)cc1,i,1.6
CCc1ccc(S(=O)(=O)Nc2cc(C(=O)O)ccc2N(CC)Cc2ccccc2)cc1,i,-0.67
O=C(NC1CC1)C1CC(=O)N(c2ccc3c(c2)CCN3C(=O)C2CC2)C1 (stereo unspecified),i,-0.36
CCn1ccc2cc(S(=O)(=O)N3CCCN(C(=O)Nc4ccc(F)cc4)CC3)ccc21,i,-0.51
COc1ccc(CNC2=NCCNC23CCCCC3C)cc1 (stereo unspecified),i,0.51
COc1ccc(C(=O)Nc2cc3c(cc2S(=O)(=O)C2CCCCC2)n(C)c(=O)c(=O)n3C)cc1,i,0.72
COc1ccc(Cl)cc1NC(=O)NC(Cc1ccccc1)Cc1ccccc1,i,1.9
O=S(=O)(Nc1ccc(F)cc1)c1cc(-c2noc(C3CC3)n2)cs1,i,-0.4
COc1ccc(-n2ccc(=O)c(-c3nc(-c4ccccc4OCc4ccccc4)no3)n2)cc1,i,-0.07
Cc1cc(=O)n2[nH]c(CNc3ccccc3)nc2n1,i,-0.14
O=C1CCCN2N=C(SCC(=O)Nc3cccc(Cl)c3)SC2=N1,i,-0.56
CC(C)(C)c1ccc(C(=O)N2CCN(CCc3ccccn3)CC2)cc1,i,-0.03
CCOC(=O)c1c(C)oc2ncnc(NCC3CCCO3)c12 (stereo unspecified),i,-0.45
COc1cc(OC)cc(C(=O)Nc2c(C)nc3nc[nH]n3c2=O)c1,i,-0.71
Cc1ccccc1Cc1c(C)nc2c(-c3nc(-c4ccc(F)cc4)no3)cnn2c1C,i,-1.6
O=C(CSc1nnc2c(=O)n(-c3cccc(F)c3)ccn12)c1c[nH]c2ccccc12,i,-0.14

These rows are one share of the data; rates above refer to the full screens.
